Assay outcomes as filed in PubChem BioAssay.
Vaccinia Venus: inhibitors of vaccinia virus (Venus reporter); Potency, µM (top dose mostly 36.5 µM), without a hit: at the top dose activity change, negative = inhibition, usual class: inhibitors; hit rate 0.46% among 330,000; AID 720580; Vaccinia virus Venus reporter expression, fluorescence; active means well fitted inhibition curve with a large enough effect; inconclusive means small, poorly fitted or top-dose-only effect; inactive means no such curve, though single readings can be large or run the other way; tested in A549 cells; also: nearly all actives have a fitted effect of over 30% in size; inactives centre near -10
VACV mCherry inh: vaccinia inhibition (mCherry reporter). Vaccinia virus mCherry reporter infection, fluorescence; about a quarter of the inactives have no number. hit rate 0.63% among 310,000. Potency, µM (doses to about 36.5 µM), for inactives: at the top dose activity change, negative = inhibition, most hits filed as inhibitors; active = well fitted inhibition curve with a large enough effect; inconclusive = small, poorly fitted or top-dose-only effect; inactive = no such curve, though single readings can be large or run the other way; tested in A549 cells; also: nearly all actives have a fitted effect of over 35% in size; inactives centre near -10
Starred values were filed as active, the others as inactive; i = inactive; ? = inconclusive; / = not tested or not shown; & = joins results of further samples. % is scaled to controls: 0 for no effect and ±100 for the full control effect; potency is read from the fitted curve at half-maximal effect. The order is random; about 0.87% have a hit in one of these screens.

Order of values – Vaccinia Venus	VACV mCherry inh
COc1ccc(CCNC(=O)c2ccc(CN3CCOCC3)cc2)cc1
 : -6%	-16%
Cc1ccc(NC(=O)C2CCCN(S(=O)(=O)c3c(C)nn(C)c3C)C2)c(C)c1 (stereo not drawn)
 : -23%	-21%
Cc1ccc(NS(=O)(=O)c2ccc(C(=O)N3CCN(c4ccccn4)CC3)cc2)cc1
 : -27%	/
CC1CCN(c2oc(-c3cccs3)nc2S(=O)(=O)c2ccccc2)CC1
 : -5%	-16%
COc1ccc(OC)c(/C=N/NC(=O)c2cc3c(OC)cc(OC)cc3[nH]2)c1
 : ?	?
COc1c2ccoc2c(OC[C@@H](OC(C)=O)C(C)(C)O)c2oc(=O)ccc12
 : 2%	i
C1=C(CCNc2ncnc3c2cnn3-c2ccccc2)CCCC1
 : -23%	0%
CC(=O)c1ccc(N2CCN(C(=O)CCCCn3c(=O)[nH]c4ccsc4c3=O)CC2)cc1
 : -5%	-12%
CC(=O)Oc1cc(OC(C)=O)c2c(c1)OC(c1ccc(OC(C)=O)c(OC(C)=O)c1)C(OC(C)=O)C2 (stereo not drawn)
 : -16%&-11%	-19%
Cc1nnc(SCC(=O)Nc2ccccc2F)n(N)c1=O
 : 2%	-9%
CCc1ccc2ncc(C(=O)c3ccc(C)c(C)c3)c(N3CCC(C(N)=O)CC3)c2c1
 : -5%	-10%
COc1cccc(C(=O)N/N=C2/SCC(=O)N2CCc2ccc(OC)c(OC)c2)c1
 : -17%	-8%
COc1ccc(CNC(=O)C2CCCN(S(=O)(=O)c3c(C)n[nH]c3C)C2)cc1 (stereo not drawn)
 : -15%	-21%
CC(=O)Nc1c(C)nn(-c2ccc(C)c(C)c2)c1C
 : -6%	-2%
Cc1cccc(OCCOC(=O)C2CCN(S(=O)(=O)c3ccc(C)c(C)c3)CC2)c1
 : -18%	-6%
CCOC(=O)c1[nH]c(C)c(C(=O)NCCCN2CCOCC2)c1C
 : -7%	i
CCn1c(CNC(=O)c2ccc(OC)cc2)nnc1SCC(=O)Nc1cccc(C)c1C
 : -2%	-13%
CCOC(=O)c1nnn(CC(=O)Nc2cccc(Cl)c2C)c1C(=O)OCC
 : -13%	i
Cc1ccc(S(=O)(=O)NCCCN2CCOCC2)cc1C
 : -5%	-8%
CCOC(=O)c1cc2c(cn1)[C@H](CCO)NC2
 : -4%	-15%
CSc1ccccc1NC(=O)CCn1c(=O)sc2ccccc21
 : -16%	-17%
CCOc1cc(C)c(S(=O)(=O)Nc2ccc3cn[nH]c3c2)cc1C
 : ?	-27%
CCC(C)n1c(-c2cccc(S(=O)(=O)N(CC)CC)c2)n[nH]c1=S (stereo not drawn)
 : -5%	-16%
Cc1cccc(C(=O)NCC(=O)OCCOc2ccccc2Cl)c1
 : -7%	-13%
CC(=O)OC1C[C@@]2(C)C(c3ccoc3)OC(=O)C3O[C@@]32[C@]2(C)C(OC(C)=O)CC3C(C)(C)C(OC(C)=O)CC(OC(C)=O)[C@@]3(C)C12 (stereo partly drawn)
 : -3%	-8%
COc1cc(/C=C/C(=O)OCC(=O)NC(C)c2ccccc2)cc(OC)c1OC (stereo not drawn)
 : -17%	i
CC(NC(=O)CN1CCN(S(=O)(=O)c2ccc(Br)cc2)CC1)c1ccccc1 (stereo not drawn)
 : -21%	-8%
O=c1cc(N2CCN(Cc3ccccc3)CC2)[nH]c(=O)n1-c1ccc(Br)cc1
 : -6%	i
COc1cccc(C2C(C(=O)c3cc4ccccc4o3)=C(O)C(=O)N2CCN2CCOCC2)c1 (stereo not drawn)
 : -12%	i
CCOc1ccccc1CN1C(=O)c2ccccc2C1C(=O)NCC1CCCO1 (stereo not drawn)
 : -4%	-9%

Full records, looked up by structure. Screens in order: Vaccinia Venus | VACV mCherry inh
Entry for Cc1ccc(S(=O)(=O)NCCCN2CCOCC2)cc1C : -5% | -8%
Entry for C1=C(CCNc2ncnc3c2cnn3-c2ccccc2)CCCC1 : -23% | 0%

Next results
Order of values – Vaccinia Venus	VACV mCherry inh
O=C(Nc1ccccc1)C1=C[C@@H](C2CCCCC2)C[C@@H](OCCCCO)O1
 : -22%	i
CC(=O)Oc1ccc(-c2csnn2)cc1
 : -20%	/
COc1cccc(CNC(=O)Cn2ncc3c4ccccc4n(C)c3c2=O)c1
 : 4%	-7%
COCC1CCN(Cc2nc(-c3ccc(OC)cc3)no2)CC1
 : -10%	i
CCOc1ccccc1NC(=S)C(=C([O-])c1ccc2c(c1)OCCO2)[n+]1ccc(CC)cc1
 : 6%	-1%
CCN(CC)CCN(C(=O)c1ccc2c(c1)OCCO2)c1nc2ccc(C)cc2s1
 : -19%	-3%
Cc1ncoc1C(=O)Nc1nccs1
 : -17%	0%
CCNC(=S)N/N=C/c1ccc(C(=O)O)cc1
 : -1%	i
COc1ccc(N=Cc2c(O)n(CC3CCCO3)c(=O)[nH]c2=O)cc1 (stereo not drawn)
 : -17%	i
O=C(N/N=C/c1ccc([N+](=O)[O-])o1)c1ccccc1-n1cccc1
 : ?	?
COc1cccc(C(=O)NCc2ccc3c(c2)CCN3C(=O)c2ccncc2)c1
 : -7%	-17%
CC(C)C(N)c1csc(NC(=O)Nc2ccccc2C(C)(C)C)n1 (stereo not drawn)
 : -8%	5%
CN(C)c1ccc(-c2ccnc3c2CC(C)(C(=O)NCc2cccs2)O3)cc1 (stereo not drawn)
 : ?	-18%
Cc1cc(C)cc(C(=O)n2cnnc2N)c1
 : -12%	-2%
CCOc1ccc(Nc2nc3ccccc3n3nnnc23)cc1
 : -16%	?
COc1cccc(-c2nc(CS(=O)CC(=O)NC3CC3)c(C)o2)c1 (stereo not drawn)
 : -7%	14%
COc1ccccc1NC(=O)CSc1nnc(-c2ccoc2C)n1CC1CCCO1 (stereo not drawn)
 : -21%	-23%
O=C(CNC(=O)c1ccc(Br)o1)NCc1ccccc1Cl
 : -10%	-11%
COc1ccc(NC(=O)CCCn2nc(C)c3sc4ccccc4c3c2=O)cc1
 : -5%	-10%
CCOc1ccc(C/C(O)=C2\C(=O)CC(C)(C)CC2=NCC(=O)O)cc1OCC
 : -11%	i
CCOCCCn1c(=N)c(C(=O)NC2CCCCC2)cc2c(=O)n3ccccc3nc21
 : 11%	20%
COc1ccc(-c2cc(=O)c3cc(C)ccc3[nH]2)cc1
 : -16%	0%
O=C(CNCc1ccccc1Cl)Nc1ccc(C(=O)N2CCCCC2)cc1
 : -11%	?
Cc1cc(SCC(=O)N/N=C/c2ccco2)nc2ccccc12
 : -8%	-7%
COC(=O)c1ccccc1NC(=O)C1(c2cccs2)CCOCC1
 : -1%	-10%
COC(=O)C1=C(CSCc2ccco2)NC(=O)NC1c1cc(C)ccc1C (stereo not drawn)
 : -4%	/
C[C@]12CC[C@H](O)C[C@@H]1CC[C@@H]1[C@@H]2CC[C@]2(C)C(=O)CC[C@@H]12
 : -12%	i
O=C1NC2CCc3nc4ccccc4c(=O)n3C2=Nc2ccccc21 (stereo not drawn)
 : -2%	-5%
CCC(=O)Nc1nc2ccccc2n1Cc1ccccc1C
 : ?	?
Cc1ccc(C2CC(c3ccco3)n3ncnc3N2)cc1 (stereo not drawn)
 : -3%	-11%

By substructure, the compounds so far containing two or more sulfur atoms (3)
Order of values – Vaccinia Venus	VACV mCherry inh
CC1CCN(c2oc(-c3cccs3)nc2S(=O)(=O)c2ccccc2)CC1
 : -5%	-16%
CSc1ccccc1NC(=O)CCn1c(=O)sc2ccccc21
 : -16%	-17%
CCC(C)n1c(-c2cccc(S(=O)(=O)N(CC)CC)c2)n[nH]c1=S (stereo not drawn)
 : -5%	-16%

(more compounds)
Order of values – Vaccinia Venus	VACV mCherry inh
CS/C(=N\S(=O)(=O)c1cccs1)Nc1ccc(Br)cc1F
 : -11%&-17%	-2%
O=C(COC(=O)Cc1ccc(Cl)c(Cl)c1)NCc1ccco1
 : 3%	-13%
CCN(CCO)c1ccc(-n2c(N)c(C(=O)OC)c3nc4ccccc4nc32)cc1
 : -15%	/
Cc1cccc(-n2c(C)cc(/C=N/NC(N)=S)c2C)c1
 : -20%	-5%
O=C(NCCS(=O)(=O)N1CCN(c2ccc(F)cc2)CC1)c1ccc2c(c1)OCO2
 : -16%	-19%
O=S(=O)(c1ccccc1)c1nc(-c2ccco2)oc1NCCCN1CCOCC1
 : 8%	/
Cc1ccc(-c2cc(C(F)F)n3ncc(C(=O)N4CCN(c5ccccn5)CC4)c3n2)cc1
 : -28%	-10%
COc1ccc(S(=O)(=O)NC(CC(=O)NCC2CCCO2)c2ccco2)cc1 (stereo not drawn)
 : -19%	/
O=C(NCc1cccnc1)c1cccc(S(=O)(=O)NCc2ccccc2)c1
 : -14%	-11%
CCS(=O)(=O)Nc1ccc(C2=NN(C(C)=O)C(c3cccs3)C2)cc1 (stereo not drawn)
 : -21%	-18%
COc1ccc(Br)cc1CNC(=O)CSc1n[nH]c(-c2ccccc2)n1
 : ?	?
CCOC(=O)C1CCCc2c1[nH]c1c(C(N)=O)cccc21 (stereo not drawn)
 : -15%	i
CCOc1ccc(Cn2nnc(C(=O)Nc3ccc(OC)cc3OC)c2N)cc1
 : -12%	-12%
CCOC(=O)c1cc(OC(=O)c2cccc(Cl)c2)n(-c2ccccc2)n1
 : -11%	-14%
CCC(=O)N1CCC2(CC1)Oc1ccc(Cl)cc1C(=O)C21CC(c2cccnc2)=NO1 (stereo not drawn)
 : -6%	-3%
O=C(Cn1cnc2c(nnn2-c2ccccc2)c1=O)N1CCOCC1
 : 11%	4%
CCOc1ccc2oc(C(=O)NNC(=O)c3csc(N4CCOCC4)n3)c(C)c2c1
 : -6%	-1%
Cc1cnc(C(=O)OC(C)C(=O)Nc2ccccc2-c2ccccc2)cn1 (stereo not drawn)
 : -14%	-14%
CSCC(=O)NCC1(N(C)Cc2ccccc2)Cc2ccccc2C1
 : -5%	-12%
O=C(/C=C/c1ccccc1Cl)c1cccnc1
 : -15%	/
Cc1cc(=O)n2nc(N3CCCC3C(=O)NCCCN3CCCCC3)sc2n1 (stereo not drawn)
 : -14%	/
CCN1CCN(C(=O)c2cc3cc4cc(OC)ccc4nc3s2)CC1
 : -13%	/
CCOc1ccc(NC(=O)CCNS(=O)(=O)c2ccc3c(c2)oc(=O)n3C)cc1
 : -6%	-9%
CC(C)Cc1nnc(NC(=O)CSc2nc(=O)cc(N)n2-c2ccccc2)s1
 : -12%	/
CCN(C(=O)CSc1nc2ccc(OC)cc2[nH]1)C1CCS(=O)(=O)C1 (stereo not drawn)
 : -1%	-12%
CCN(c1ccccc1)S(=O)(=O)c1ccc(OC)c(NC(=O)CCc2nc3ccccc3c(=O)[nH]2)c1
 : -18%	-4%
CCCCCCn1c(O)c(C=NCCCn2ccnc2)c(=O)[nH]c1=O
 : -10%	/
CCOc1ccc(-c2nnc(SCC(=O)NCc3ccc(Cl)cc3)o2)cc1
 : -12%	-19%
O=c1[nH][nH]c2c(N=Cc3ccccc3O)ccc(F)c12
 : -2%	-17%
COC(=O)[C@@]1(Cc2ccc(OC)cc2)[C@H]2c3cc(C(=O)N4CCCC4)n(Cc4ccsc4Br)c3C[C@H]2CN1C(=O)c1ccccc1
 : -6%	-4%
Cc1ccc(S(=O)(=O)NC(=NC(Cc2ccccc2)C(=O)O)c2ccccc2)cc1 (stereo not drawn)
 : -1%	4%
CCCC(=O)Nc1ccc(-c2cnc(-c3ccc(NC(=O)CCC)cc3)nc2)cc1
 : -3%	i
COc1ccc(CN2CCC3(CC2)c2ccccc2[C@@H](NC(=O)c2ccsc2)[C@@H]3OC)cc1O
 : -10%	-16%
C[C@H](CO)N1C[C@H](C)[C@@H](CN(C)S(=O)(=O)c2cccs2)Oc2ccc(NS(=O)(=O)c3ccc(F)cc3)cc2C1=O
 : -13%	?
CCn1ccc(C(=O)Nc2ccccc2SC)n1
 : -18%	i
C=C1c2cccc(OC)c2O[C@H](C(=O)OCC)[C@@H]1CC(CC)CCCC (stereo partly drawn)
 : -27%	-30%
CC(=O)Nc1ccc2c(c1)Cc1c(F)cccc1-2
 : -19%	-20%
Fc1cccc(C[n+]2csc3ccccc32)c1
 : 1%	-7%
CC1(C)OCC(N)(CO)CO1
 : -8%	?
O=C(CCc1ccc(O)cc1)NN=Cc1cc(Br)ccc1O
 : ?	?
COc1ccc(-c2n[nH]c(=S)n2-c2ccc(C)cc2)cc1
 : -4%	-15%
Clc1cccc(-c2sc(Nc3ccccc3)n[n+]2-c2ccccc2)c1Cl
 : -26%	-15%
Cc1noc(/C=C/N(C)C)c1S(=O)(=O)NC1CCCCC1
 : -16%	/
C/C=C/c1ccc(OCCCCN2CCC(C)CC2)c(OC)c1
 : -21%	-23%
N#Cc1ccc(-c2csc(NC(=O)c3ccc(S(=O)(=O)N4CCc5ccccc5C4)cc3)n2)cc1
 : -5%	-19%
CCC(=O)Nc1cccc(-c2cc3ccccc3oc2=O)c1
 : -23%	-14%
O=C(NC(=S)Nc1ccccc1O)c1ccc(-c2ccc(Cl)cc2)o1
 : ?	-27%
CCN1CCN(CC(=O)Nc2ccccc2)C(=O)C1=O
 : -1%	-15%
CN(Cc1ccc(C(F)(F)F)cc1)C(=O)[C@H]1O[C@@H](n2cnc3c(N)ncnc32)[C@H](O)[C@@H]1O
 : -9%	2%
CCOc1ccc(NC(=O)C(C)O)c(NS(=O)(=O)c2ccc(CCNC(C)=O)cc2)c1 (stereo not drawn)
 : -1%	-18%
